Compound activity deposited in PubChem by several laboratories.
Beta2AR agonist: agonists of human beta-2 adrenergic receptor inducing internalization | response, % (concentration not given with the values) | Am2.2-beta2AR cells, FAP receptor internalization, flow cytometry; reference of the scale not given here | hit rate 0.43% among 340,000 | AID 504454 | P07550;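 active means response above a set limit, near 3 SD of response in nonfluorescent compounds, cut at about 42% in these data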;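 further: stock transfer was 100 nL into about 11 µL; a reference agonist was the positive control; negative values mostly stem from fluorescent compounds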
Target sequence (P07550 whole entry, looked up): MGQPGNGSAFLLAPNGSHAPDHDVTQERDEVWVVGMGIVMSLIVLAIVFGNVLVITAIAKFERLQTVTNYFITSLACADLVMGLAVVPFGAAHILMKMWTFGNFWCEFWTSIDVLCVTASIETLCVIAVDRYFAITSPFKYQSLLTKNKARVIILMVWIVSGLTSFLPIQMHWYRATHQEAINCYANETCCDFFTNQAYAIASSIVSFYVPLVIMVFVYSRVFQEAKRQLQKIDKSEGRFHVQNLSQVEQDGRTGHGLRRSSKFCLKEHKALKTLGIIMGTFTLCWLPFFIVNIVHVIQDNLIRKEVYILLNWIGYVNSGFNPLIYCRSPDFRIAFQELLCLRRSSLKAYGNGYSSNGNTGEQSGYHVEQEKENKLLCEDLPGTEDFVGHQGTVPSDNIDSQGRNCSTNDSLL
Beta cell apopt: beta cell apoptosis inhibition | INS-1E cytokine-induced death, ATP luminescence, 48 h; percent of positive-control rescue, neutral wells zero | protection from apoptosis, % (no concentration beside the values) | hit rate 0.8% among 300,000 | AID 435005;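 active means all replicates at 75% or more, or half of them and the mean; inconclusive means half reach 75% but not the mean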;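 further: 0% = cytokine-treated negative control wells and 100% = positive control rescue; higher means more ATP so stronger rescue from cytokine killing; wells of about 40 µL received 100 nL stock; the first replicate is given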
Calb FLC: C. albicans growth modulation with fluconazole; C. albicans CaCi-2 (fluconazole-resistant clinical isolate) + fluconazole, Alamar Blue growth, 48 h; growth inhibition, % (no concentration beside the values); hit rate 0.57% among 300,000; AID 1979;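 active means most replicates above 75%; inconclusive means exactly half above 75%; inactive means most below 75%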;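 further: all wells also contain fluconazole at 8 µg/ml as a sub-toxic cotreatment; 0% = median of DMSO wells and 100% = median of geldanamycin control wells; wells of about 8 µL received 7.5 nL stock; the first replicate is given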
LANA-H2A inh: blocks KSHV LANA binding to histone H2A/H2B | hit rate 0.6% among 320,000 | Q9QR71 | AID 2629 | inhibition, % (no concentration beside the values) | cell-free LANA-H2A/H2B peptide, fluorescence polarization; in the data active means inhibition mostly above about 10%, no sharp cut-off; inactive means mostly below about 6.7%;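 further: stock transfer was 7.5 nL into about 10 µL; 0% = median of vehicle wells and 100% = median of positive control wells; one replicate is shown; the record names a cut of 25% in any replicate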
ALR H2O2 inh: human ALR oxidase inhibition via reduced H2O2; inhibition, % (no concentration beside the values); AID 485317; purified ALR, DTT oxidation, H2O2 HRP-luminol luminescence; hit rate 3.8% among 290,000;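 active means mean and each replicate at 75% or more; inconclusive means only one of the two met; inactive means neither met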;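 further: stock transfer was 7.5 nL into about 7.5 µL; 0% = neutral wells and 100% = wells with inactivated enzyme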
Target sequence (P55789 whole entry, looked up): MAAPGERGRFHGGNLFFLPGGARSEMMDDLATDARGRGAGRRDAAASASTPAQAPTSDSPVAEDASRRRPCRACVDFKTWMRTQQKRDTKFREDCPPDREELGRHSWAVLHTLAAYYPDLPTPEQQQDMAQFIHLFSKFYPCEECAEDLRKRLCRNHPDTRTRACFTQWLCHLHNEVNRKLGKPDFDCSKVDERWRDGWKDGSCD
A1 inh: inhibitors of the anti-apoptotic protein A1, read as caspase activation; MEF A1-2A-BIM cells, Caspase-Glo 3/7 luminescence, 3 h; percent of clofoctol response, vehicle zero; AID 2462; caspase activation, % (test concentration not listed); hit rate 0.066% among 330,000;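 active means over half of replicate activation scores above 10%, or exactly half above 10 with the replicate mean above 10; inconclusive means replicate mean below 10 yet half the replicates above 10; inactive means over half of replicates below 10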;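 further: wells of about 30 µL received 50 nL stock; many hits fall short of the cut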
T cruzi repl: blocks replication of Trypanosoma cruzi; T. cruzi beta-gal in NIH3T3, luminescence, 90 h; inhibition, % (no concentration beside the values); hit rate 1.4% among 300,000; AID 1885;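 active means mean inhibition across valid replicates above about 55%, limit read from the data; inconclusive means mean below that limit but half or more replicates reach it; inactive means mean below it, under half of replicates reach it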;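 further: signal also drops with host cell toxicity which is not excluded here; 0% = plate median of DMSO wells and 100% = zero luminescence signal; higher percent means less beta-gal luminescence so fewer parasites; stock transfer was 50 nL into about 50 µL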
Ecoli rRNA inh: selective bacterial rRNA inhibition in E. coli; GFP signal change (wild-type ribosome), % (no concentration beside the values); hit rate 1.6% among 350,000; E. coli WT GFP vs humanized-ribosome RFP mutants, fluorescence, 24 h; stronger effect = lower value; DMSO median 0, no signal -100; AID 720706;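 active means significant combined selectivity score with lowered wild-type GFP, culture density cut under 30%, mutant RFP and density less affected; inactive means any of these conditions unmet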; further: one replicate is shown; some compounds called inactive have numbers as strong as hits
Ecoli rRNA inh OD600: further read-out of Ecoli rRNA inh, marked with its call; OD600 change, %; measured here: OD600 growth;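 optical density of the mix in the first replicate; 0 = DMSO median and -100 = no signal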
Ecoli rRNA inh RFP: also measured in Ecoli rRNA inh; calls as there; RFP signal change, %; measured here: RFP humanized mutant strains;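 first replicate; 0 = DMSO median and -100 = no signal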
The depositor's hits bear a star; u = inconclusive; x = not tested or not shown; & = joins results of further samples.

SMILES	Beta2AR agonist	Beta cell apopt	Calb FLC	LANA-H2A inh	ALR H2O2 inh	A1 inh	T cruzi repl	Ecoli rRNA inh	Ecoli rRNA inh OD600	Ecoli rRNA inh RFP
CC1CCCN(Cc2nc(Cc3ccccc3Cl)no2)C1 (stereo not drawn)	2	-2	6	-5.8	2	-0.8	6	-4	-9	-7.1
CCOc1ccccc1N1CC(C(=O)Nc2ccc3c(c2)OCCO3)CC1=O (stereo not drawn)	-4	3	-29	-3.1	-5	1.1	-3	6	1	1.6
COC(OC)c1ccnc(-c2ccc(OC(C)=O)cc2)n1	9	-4	-5	-4.6	-7	0.7	-26	10	7	2.7
CC(=O)c1ccc(NC(=S)NCCc2ccc(S(N)(=O)=O)cc2)cc1	2	-1	0	-6.5	26	-0.2	-6	1	2	-8.3
Cc1ccc(NC(=O)Cn2nc(-c3ccccc3Cl)ccc2=O)c(Br)c1	0	-2	-17	-3.2	1	0.4	6	6	10	0.3
O=C(COC(=O)C1(c2ccccc2)CC1)NNC(=O)c1ccccc1F	6	x	0	-2.4	x	-0.1	-8	12	11	-0.9
O=C(COC(=O)CNC(=O)C1CCCCC1)NCc1ccc(Cl)cc1	1	-2	x	6.0	4	0.9	x	-4	-8	8.2
CC(C)N1CCc2c(sc(NC(=O)c3ccc4ccccc4c3)c2C(N)=O)C1	-23	25	-2	-12	6	0.6	39	-24	-39	-4.5
Cc1ccccc1Cn1c2ccccc2c2cnn(CC(=O)NCc3ccco3)c(=O)c21	18	16	0	1.1	-3	-0.4	41	7	5	-0.4
COc1ccc([N+](=O)[O-])cc1NC(=O)COC(=O)/C=C/c1ccco1	-4	-3	6	3.4	x	1.9	-22	x	x	x
Cn1c(=O)c2c(ncn2CC(=O)OCC(=O)c2ccc(Cl)cc2)n(C)c1=O	-7	-7	0	-7.6	-1	1.1	-11	8	15	-0.1
Cc1cc(C)nc(NC(=S)Nc2cccc(Cl)c2Cl)c1	-29	0	5	1.0	0	0.4	2	2	20	0.6
O=C(COC(=O)c1ccc(O)cc1O)Nc1ncc(Cl)cc1Cl	12	1	-1	1.2	2	-0.3	-5	1	-2	0.0
Cc1ccccc1-n1c(C)nnc1SCc1cc(=O)oc2ccc3ccccc3c12	6	5	22	2.0	-13	-0.3	11	x	x	x
CCOC(=O)c1c(NC(=O)CC)sc2c1CCN(Cc1ccccc1)C2	5	-2	-4	-3.4	-29	0.6	44	-25	-66	-1.8
Cc1cc(C)cc(C(=O)Nc2ccc3[nH]c(=O)[nH]c3c2)c1	0	-2	-3	-7.8	-23	0.1	-11	-11	-15	-3.9
COC(=O)c1c(NC(=O)CN2CCC3(O)CCCCC3C2c2ccc(OC)cc2OC)sc(C)c1C (stereo not drawn)	7	-4	10	1.3	x	-0.6	12	x	x	x
O=c1c([N+](=O)[O-])c(NCCN2CCCCCC2)c2ccccc2n1-c1ccccc1	0	-5	7	-2.6	-18	0.3	16	x	x	x
COc1ccc(N2C(=O)C(CN3CCCCC3)C2c2ccccc2)cc1 (stereo not drawn)	2	-6	-6	-0.8	-6	-1.2	20	-1	-16	1.8
COc1ccc(C2c3sc(=O)[nH]c3SC3C(=O)N(c4ccccc4)C(=O)C32)cc1 (stereo not drawn)	6	-1	-2	-2.6	x	-1.8	4	-6	-7	8.1
COC(=O)c1cc(NS(=O)(=O)c2ccc3c(c2)CCC(=O)N3)cc(C(=O)OC)c1	0	x	-8	5.6	x	0.7	4	-5	-19	-6.6
O=C(c1cc(C2CC2)nn1-c1ccccc1)N1CCN(Cc2c(F)cccc2Cl)CC1	7	-14	x	1.9	12	0.3	x	x	x	x
O=C(NCc1ccc(Cl)cc1)c1cc(S(=O)(=O)N2CCCCC2)c[nH]1	-13	2	-9	-0.5	3	-0.6	-4	-22	-39	-3.4
COc1ccc(Cl)cc1-c1nc(N)nc(N(C)C)n1	8	-6	5	0.6	-3	-0.1	-9	x	x	x
CC1(C)Cc2c(c(N3CCOCC3)nc3sc4c(NN)ncnc4c23)CS1	9	81*	-8	1.6	-14	0.3	27	x	x	x
O=C(NCCS(=O)(=O)N1CCN(c2ccccc2)CC1)c1ccc(Br)o1	2	x	2	0.1	8	0.4	-3	-9	-9	3.8
CCOC(=O)c1sc2nc(C3CC3)cc(-c3ccc(F)cc3)c2c1N	-9	-7	0	-3.3	54	0.6	22	x	x	x
C=C1CCN(C(C(=O)OC)C(C)C)S(=O)(=O)c2ccccc21 (stereo not drawn)	-1	-7	-2	-1.4	-5	-2.4	-3	-10	-8	-3.6
C[C@H](CO)N1C[C@H](C)[C@H](CN(C)S(C)(=O)=O)Oc2c(cccc2N(C)C)C1=O	2	2	x	-2.9	2	-0.5	x	-1&12	0&11	-0.2&0.2
C=CCC[C@H](Cc1ccc(F)cc1)C(=O)OC[C@@H](C)NC(=O)[C@@H](CC=C)CC(=O)N[C@H](CO)Cc1ccccc1	3	0	x	1.1	-2	1.3	x	-9	-5	11
O=C(CCC(=O)N1CCOCC1)NCc1cccc(C(F)(F)F)c1	2	-1	x	22*	-4	0.7	x	9	11	0.2
Cc1ccc(NC(=O)COC(=O)CSC(=S)N2CCOCC2)cc1C	-1	-2	-3	0.9	x	0.0	-10	7	12	0.2
CCN1C(=O)c2ccccc2Sc2ccc(C(=O)NCCN3CCOCC3)cc21	4	-7	3	-2.4	x	-0.2	-4	15	11	5.3
COC(=O)c1ccn(Cc2ccccc2Cl)n1	5	x	-4	x	x	x	1	12	6	-1.0
COC(=O)c1[nH]c2ccc(C)cc2c1NC(=O)C1=COCCO1	-3	-11	-9	0.5	47	-0.7	-3	x	x	x
O=C(Nc1cccs1)Nc1c(F)cc(F)cc1Br	-3	-10	-2	-1.2	96*	0.5	-8	x	x	x
C=C(C)CNC(=O)c1ccc(OC2CCN(S(=O)(=O)N(C)C)CC2)cc1	-1	-5	-1	1.3	3	2.1	-4	2	9	1.9
Cn1cccc1/C=C1\SC(=Nc2ccccc2)NC1=O	13	7	8	-0.2	2	-4.5	-2	2	6	-0.1
CCN(CC)C(=O)c1ccc(-c2nnc(Nc3ccc(C(=O)NC)cc3)c3ccccc23)cc1	35	3	-6	2.7	-7	0.3	8	-12	-13	-2.8
CC(C)CC(N)c1cn([C@@H](CCC(=O)O)C(=O)N2CCNCC2)nn1 (stereo partly drawn)	1	-3	15	-5.4	-5	0.5	-16	6	13	-8.2
CN1C(=O)c2oc3ccccc3c(=O)c2C1c1ccncc1 (stereo not drawn)	-1	-2	-5	x	x	-0.2	-9	x	x	x
O=C(c1cc(S(=O)(=O)N2CCCCC2)ccc1N1CCOCC1)N1CCN(Cc2ccccc2)CC1	3	-1	-4	-2.4	-4	0.0	15	0	-1	2.9
COc1cccc(C(c2ccccc2)N2C3CCC2CN(S(=O)(=O)c2ccc(F)cc2)CC3)c1 (stereo not drawn)	4	x	-4	6.8	-10	-0.1	u	14	16	1.9
CCn1ccc(C(=O)Oc2ccc(C(C)C)cc2)n1	-10	-7	-3	-0.3	14	0.0	-5	-10	4	-3.9
O=C(CSc1ccc2ccccc2n1)NCCC1=CCCCC1	-5	x	4	3.4	-3	-1.1	18	x	x	x
O=C(CSc1nnc(-c2ccco2)n1-c1ccccc1)N1CCN(C(=O)c2ccco2)CC1	4	-9	1	-0.6	7	2.8	0	x	x	x
COc1cc(/C=N/NC(=O)C(N)=O)cc(OC)c1O	1	-1	-7	-0.5	99*	-0.9	5	13	11	-1.8
Cn1ccc(NC(=O)c2ccc(Cl)cc2Cl)n1	0	4	x	x	-4	-0.5	x	2	-14	-5.5
Cc1noc(C)c1S(=O)(=O)Nc1ccc(C(=O)O)cc1	8	-1	-10	-0.5	-7	0.4	-17	x	x	x
CCOC(=O)CNC(=O)CSc1nc(Cc2cccs2)nc2ccccc12	3	x	2	-1.5	79*	-0.2	10	-7	-1	-4.3
Cc1ccc(Nc2cc(C)nn2-c2nc(C)cc(=O)[nH]2)cc1	31	98*	80*	-4.9	92*	-1.3	56*	x	x	x
COc1ccc(C2C(C(=O)N3CCCCC3)c3ccccc3C(=O)N2C)cc1 (stereo not drawn)	7	-8	-7	4.5	-11	-0.2	-3	x	x	x
CCOC(=O)Cn1c(=O)cc(C)c2cccc(C)c21	3	0	10	1.5	-3	0.9	-24	-4	-2	-5.9
CCOC(=O)Cn1c(=O)c(-c2ccccc2NCc2ccccc2)nc2ccccc21	0	2	14	3.2	1	0.2	4	x	x	x
CN(CC(=O)NCc1ccco1)CC(=O)Nc1ccc(F)c(F)c1F	9	-6	x	-0.2	-4	0.2	x	22	17	6.4
COC(=O)c1[nH]c(C)c(/C(O)=C2\C(=O)C(=O)N(CCN(C)C)C2c2cccs2)c1C (stereo not drawn)	5	-6	-6	-4.7	-10	1.5	-8	x	x	x
CCC(CO)Oc1cc(NCc2ccccc2O)c2ncn(C(C)C)c2c1 (stereo not drawn)	-3	-5	x	5.9	33	-0.1	x	0	3	7.3
CCc1c(C)nc(N)n2c(SCC(=O)N3CCCC(C)C3)nnc12 (stereo not drawn)	-12	2	8	-10	1	0.4	9	x	x	x
Cc1ccc(S(=O)(=O)n2cnc(C)c2)cc1	6	x	-5	7.0	-5	1.1	-6	11	15	1.7
Nc1ccc(Cl)c(-c2nc3ncccc3o2)c1	-8	1	-5	11	-12	0.5	31	x	x	x

Next section.
SMILES	Beta2AR agonist	Beta cell apopt	Calb FLC	LANA-H2A inh	ALR H2O2 inh	A1 inh	T cruzi repl	Ecoli rRNA inh	Ecoli rRNA inh OD600	Ecoli rRNA inh RFP
CC(=O)c1ccc(NS(=O)(=O)c2cc(-c3cnc(C4CC4)o3)ccc2C)cc1	9	x	-5	x	32	x	11	5	-4	2.2
CCCc1cc(C(=O)N2CCN(C(c3ccccc3)c3ccccc3)CC2)no1	8	1	-1	8.0	x	-0.2	35	-1	5	1.4
CC(C)C(=O)Nc1ccc(Oc2ccc3c(c2)C(=O)NC3=O)cc1	-2	-9	7	0.2	-16	-0.1	-5	7	-10	10.0
CC1(C)OCC(COC(=O)Nc2cccnc2)([N+](=O)[O-])CO1	-4	-7	3	3.0	1	1.6	-2	13	11	0.5
COc1cccc(CC(=O)OCC(=O)NC2(C#N)CCCC2)c1	1	-3	x	0.0	2	0.8	x	14	12	-0.9
O=C(CNC(=O)c1ccc(Cl)cc1)OCC(=O)c1ccccc1	3	-8	6	4.3	-6	0.4	-13	11	16	1.3
O=c1c2cc(N3CCOCC3)ccc2[nH]c(=S)n1Cc1ccco1	4	-10	16	3.8	-25	0.5	-18	x	x	x
O=C(NCCc1ccc(Cl)cc1)c1ccc(OCC2CCCO2)cc1 (stereo not drawn)	-23	0	-6	0.7	-1	-0.2	4	-2	4	-0.9
COc1cccc(C(=O)Nc2ccc3[nH]ncc3c2)c1OC	5	-13	-2	1.5	-6	0.1	-2	-11	-10	-2.2

This is a subset; rates above refer to the full screens.
